# High-throughput results (PubChem)
# GLA inh pH 4.5 = qHTS Assay for Inhibitors of Human alpha-Galactosidase at pH 4.5; Alpha-galactosidase A (Homo sapiens), P06280; purified enzyme, 4-MU-alpha-Gal fluorescence, pH 4.5; activity change, negative = inhibition, % at 105 µM; 230,000 tested, under 10 active; AID 1467, 2008; inconclusive = small, poorly fitted or top-dose-only inhibition, or a rising curve; inactive = flat fitted curve, though single readings scatter; no compound was filed as active;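 note: 0% = full activity with enzyme and -100% = basal without enzyme; dose as in the result columns while the protocol names 77 µM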
# Rango complex inh = qHTS Assay for Inhibitors of Rango (Ran-regulated importin-beta cargo) - Importin beta complex formation. Importin subunit beta-1 (Homo sapiens), Q14974. Rango CFP/YFP FRET sensor + importin beta, 45 min. Potency, µM (doses to about 92.2 µM), for the others: at the highest dose inhibition of complex formation. 0.031% of 340,000 active. AID 540263, 2011; active = rising FRET ratio curve, often small or poorly fitted; inconclusive = mostly compound fluorescence or quenching in the first reads; inactive = flat curves in all reads;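 note: potency is the fitted concentration of half-maximal effect; 0% = DMSO wells and 100% = buffer wells lacking importin beta; nearly all actives have a fitted effect of over 15% in size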
# Target sequence (Q14974 whole entry, looked up): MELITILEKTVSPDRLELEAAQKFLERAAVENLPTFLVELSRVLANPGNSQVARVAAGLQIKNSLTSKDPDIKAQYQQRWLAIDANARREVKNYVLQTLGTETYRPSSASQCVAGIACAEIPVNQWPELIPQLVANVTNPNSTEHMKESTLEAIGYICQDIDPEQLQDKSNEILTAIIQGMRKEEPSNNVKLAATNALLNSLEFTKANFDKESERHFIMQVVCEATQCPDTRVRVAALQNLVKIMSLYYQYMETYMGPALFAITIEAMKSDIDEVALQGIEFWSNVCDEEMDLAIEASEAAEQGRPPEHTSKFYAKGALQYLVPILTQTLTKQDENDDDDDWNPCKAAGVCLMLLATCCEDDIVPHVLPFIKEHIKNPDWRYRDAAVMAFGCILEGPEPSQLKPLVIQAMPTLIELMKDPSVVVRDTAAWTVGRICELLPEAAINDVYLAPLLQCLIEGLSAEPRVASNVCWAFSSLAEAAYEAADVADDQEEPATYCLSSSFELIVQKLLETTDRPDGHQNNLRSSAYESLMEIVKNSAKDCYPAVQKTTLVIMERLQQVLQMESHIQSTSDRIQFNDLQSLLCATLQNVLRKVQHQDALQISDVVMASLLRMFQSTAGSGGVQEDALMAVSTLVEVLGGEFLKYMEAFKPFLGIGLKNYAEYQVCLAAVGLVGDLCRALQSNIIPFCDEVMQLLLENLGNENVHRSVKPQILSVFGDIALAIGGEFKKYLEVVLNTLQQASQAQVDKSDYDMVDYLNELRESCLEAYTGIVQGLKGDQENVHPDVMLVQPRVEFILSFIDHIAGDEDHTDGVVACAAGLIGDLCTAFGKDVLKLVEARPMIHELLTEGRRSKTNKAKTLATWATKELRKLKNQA
#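 FRET biosensor Rango (snurportin 1 IBB between N-terminal EYFP and C-terminal Cerulean), 50 nM in PBS/1 mM DTT/0.02% Tween-20/0.1% BSA, preincubated 5 min RT with compound; 0.125 microM importin beta added, 45 min RT, CFP/YFP FRET ratio read.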
# miR-21 FLuc = qHTS Assay for Modulators of miRNAs and/orActivators of miR-21 | Potency, µM (series often up to 38.3 µM), for the others: at the top dose reporter change, positive = more light | 340,000 tested, under 10 active | HeLa miR-21 FLuc reporter, luciferase, 48 h; active = well fitted rising curve with a large enough effect; inconclusive = small, poorly fitted or top-dose-only effect; inactive = no such curve, though single readings can be large or run the other way;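 note: % of control where 0% means no effect; miR-21 action dims this reporter so a rising signal means less miR-21 action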
#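 HeLa miR-21-FLuc reporter line, endogenous miR-21; 2000 cells/well in DMEM/10% FBS; compound titration up to ~40uM final, 48 h, 37 degree Celsius; luciferase detection reagent, 15 min lysis, CCD luminescence.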
# Rango release inh = qHTS Assay for Inhibitors of RanGTP induced Rango (Ran-regulated importin-beta cargo) - Importin beta complex dissociation; 0.071% of 340,000 active; Potency, µM (series often up to 46.1 µM), for the others: at the highest dose activity change, negative = inhibition; Biochemical FRET Rango-importin beta, RanGTP-induced dissociation; Snurportin-1 (Homo sapiens) + GTP-binding nuclear protein Ran (Homo sapiens) + Importin …; active means falling FRET ratio curve, often poorly fitted, with flat reads before Ran was added; inconclusive means other falling curves, or compound fluorescence or quenching; inactive means flat or rising ratio curve;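 note: potency is the fitted concentration of half-maximal effect; % of control where 0% means no effect; nearly all actives have a fitted effect of over 45% in size; -100% = wells without RanGTP and RCC1; the record marks most hits as doubtful in a second field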
#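 Recombinant Rango FRET biosensor (EYFP–snurportin 1 IBB–cerulean CFP10) at 0.1 uM premixed with 0.25 uM importin beta in PBS, 1 mM DTT, 0.02% Tween-20, 0.1% BSA. Compound added 5 min; RanGTP-RCC1 (0.6 uM Ran, 2 mM GTP, 0.2 uM RCC1) then triggers release, read at 45 min.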
# Starred values were filed as active, the others as inactive; ? = inconclusive; · = not tested or not shown.
# Short forms – A = GLA inh pH 4.5; B = Rango complex inh; C = miR-21 FLuc; D = Rango release inh
> O=C(/C=C/c1ccccc1Cl)Nc1ccc(-c2nnc3n2CCCCC3)cc1
  A: 2; B: -1.3%; C: -17%; D: 3%
> COc1ccc(C(=O)NCCN2C(=O)S/C(=C\c3cccnc3)C2=O)c(OC)c1OC
  A: 7; B: -4.6%; C: -5%; D: -5%
> O=c1c2[nH]c3ccc(F)cc3c2ncn1CCN1CCN(Cc2ccccc2)CC1
  A: 5; B: -2.2%; C: -3%; D: 4%
> O=C(Nc1cc2c3c(c1)CC(=O)N3CCC2)c1ccc(Br)cc1
  A: ·; B: -0.2%; C: ·; D: 8%
> CS(=O)(=O)N1CCc2cc(C(=O)Nc3ccc(Cl)cc3)ccc21
  A: ·; B: 0.5%; C: -28%; D: 4%
> c1csc(-c2nc(NCC3CCCO3)c3ccccc3n2)c1 (centres undefined)
  A: ·; B: 3.7%; C: 13%; D: 2%
> COc1ccc(CN(C)C(=O)CNC(=O)c2ccc3ccccc3c2)c(OC)c1
  A: ·; B: -3.4%; C: 5%; D: 12%
> CC(=O)c1sc(Nc2nc3cc4c(cc3s2)OCO4)nc1C
  A: -7; B: ?; C: -64%; D: ?
> CCOC(=O)CN(C(=O)COC(=O)C1(c2ccccc2)CC1)c1ccc(F)cc1
  A: ·; B: -3.6%; C: ·; D: -9%
> CCN1CCN(CCNC(=O)CCCn2nc(C)c3c(C)n(-c4ccc(C)cc4)nc3c2=O)CC1
  A: ·; B: -2.2%; C: -2%; D: -24%
> CCCCN(CC)C(=O)CN1C(=O)c2ccccc2C1=O
  A: 2; B: 2.8%; C: 0%; D: -4%
> OC(CN1CCC(Cc2ccccc2)CC1)c1ccccc1 (centres undefined)
  A: ·; B: -3.7%; C: -4%; D: 11%
> CC(=O)NC(CC(=O)OCC(=O)Nc1cc(S(=O)(=O)N2CCCCC2)ccc1C)c1ccccc1 (centres undefined)
  A: ·; B: 0.1%; C: ·; D: -20%
> Cc1cccc(OC(=O)c2cccnc2)c1C
  A: ·; B: -0.7%; C: 2%; D: -8%
> Cc1ccnc(NS(=O)(=O)c2ccc(N3C(=O)c4ccccc4C3=O)cc2)n1
  A: -10; B: -0.4%; C: -9%; D: 0%
> CCCCNC(=O)CC1N=C2c3ccccc3N=C(SCC(=O)Nc3ccccc3C)N2C1=O (centres undefined)
  A: 4; B: -0.9%; C: -7%; D: 2%
> CN(Cc1nc2ccccc2n1C)S(=O)(=O)c1ccc(Cl)cc1
  A: -11; B: -4.3%; C: -4%; D: -9%
> COc1ccc(OC)c(-c2csc(NC(=O)C3COc4ccccc4O3)n2)c1 (centres undefined)
  A: 4; B: 1.4%; C: -2%; D: 13%
> COc1ccc2[nH]c(C(=O)NCCCn3ccnc3)cc2c1
  A: ·; B: 2.5%; C: -2%; D: -3%
> O=[N+]([O-])c1cc(-c2nc(-c3ccncc3)no2)ccc1Cl
  A: -8; B: -4.3%; C: -6%; D: -1%
> CCCSc1nc2c(cnn2-c2ccccc2)c(=O)[nH]1
  A: 1; B: 11%; C: -13%; D: 1%
> COc1cc(/C=N/Nc2cccc(C)c2)ccc1OC(=O)c1ccco1
  A: 8; B: 5.9%; C: -33%; D: -14%
> Cc1cc(C)nc(NS(=O)(=O)c2ccc(NC(=O)CCCN3C(=O)c4ccccc4C3=O)cc2)n1
  A: 3; B: 1.1%; C: -6%; D: -18%
> Nn1c(SCc2nc3ccccc3[nH]2)nnc1C1CCCCC1
  A: -3; B: -2.1%; C: -10%; D: -3%
> Nc1cccc2cc(S(=O)(=O)O)ccc12
  A: ·; B: ?; C: ·; D: ?
> CN1CCN(NC(=S)Nc2ccc(OC(F)F)cc2)CC1
  A: -4; B: -2.2%; C: 2%; D: 10%
> COc1ccc(CCN2CC(C(=O)Nc3ccc(S(C)(=O)=O)cc3)CC2=O)cc1OC (centres undefined)
  A: ·; B: 0.3%; C: ·; D: ?
> CCCCOC(=O)Cn1c(=N)n(CCN2CCOCC2)c2ccccc21
  A: ·; B: 0.3%; C: ·; D: 1%
> CC1CCCCN1C(=S)Nc1ccc(OC(F)F)cc1 (centres undefined)
  A: 6; B: -0.5%; C: -8%; D: 20%
> CCOC(=O)c1cnc(-n2nc(C)cc2C)nc1Nc1ccc(C)cc1
  A: 0; B: -2.4%; C: -2%; D: 16%
> O=C(Nc1ccc2c(c1)OCO2)C1CC(c2c(F)cccc2Cl)=NO1 (centres undefined)
  A: 1; B: 0.0%; C: -48%; D: -1%
> CC(C)(C)NC(=O)CN(C(=O)c1ccc(Cl)nc1)c1cccc2ccccc12
  A: -7; B: -0.4%; C: 2%; D: 0%
> CC(C)(C)NC(=S)NC1CC1
  A: -2; B: 0.7%; C: -6%; D: 1%
> Cc1cc(C)cc(N(C(C)C(=O)N2CCCCC2)S(C)(=O)=O)c1 (centres undefined)
  A: 2; B: 2.0%; C: 1%; D: 17%
> C=CCOc1ccc(/C=C/C(=O)OCC(=O)NC(C)c2ccc(F)cc2)cc1 (centres undefined)
  A: ·; B: 5.1%; C: ·; D: 0%
> O=C(CC(c1ccccc1)c1ccccc1)Nc1nn[nH]n1
  A: -2; B: -3.5%; C: -1%; D: -1%
> Cc1ccc(S(=O)(=O)N2C[C@@H]3[C@H]4CC[C@H](C4)[C@@H]3[C@@H](C)[C@@H]2c2ccn(Cc3ccccc3)c2)cc1
  A: ·; B: 0.5%; C: ·; D: -13%
> Cc1cccc(Sc2c([N+](=O)[O-])ncn2C)c1
  A: -3; B: 5.4%; C: 13%; D: -24%
> Nc1cc2c(cc1Cl)N(Cc1ccccc1)C(=O)CO2
  A: ·; B: -0.1%; C: ·; D: 10%
> Clc1ccc2nc(-c3ccncc3)cc(-c3ccccc3)c2c1
  A: 6; B: 0.7%; C: -4%; D: -13%

# The last 3 records of the section above are carried over, then new ones follow:
# Short forms – A = GLA inh pH 4.5; B = Rango complex inh; C = miR-21 FLuc; D = Rango release inh
> Cc1cccc(Sc2c([N+](=O)[O-])ncn2C)c1
  A: -3; B: 5.4%; C: 13%; D: -24%
> Nc1cc2c(cc1Cl)N(Cc1ccccc1)C(=O)CO2
  A: ·; B: -0.1%; C: ·; D: 10%
> Clc1ccc2nc(-c3ccncc3)cc(-c3ccccc3)c2c1
  A: 6; B: 0.7%; C: -4%; D: -13%
> CN(C)CCCn1c(=O)n(Cc2ccco2)c(=O)c2c3c(sc21)CCCCC3
  A: -14; B: -3.4%; C: -3%; D: -6%
> Cc1ccc(N(CCO)C(=S)Nc2ccccc2)cc1
  A: ·; B: -5.3%; C: -2%; D: -3%
> CC(C)C(=O)N[C@@H]1c2ccccc2CC[C@@H]1OCc1ccccc1
  A: ·; B: -2.6%; C: ·; D: 37%
> CCc1ccc(OCC(=O)OCC(=O)NCCNC(=O)COC(=O)COc2ccc(CC)cc2)cc1
  A: ·; B: 0.4%; C: 1%; D: -14%
> COc1cccc(N2C(=O)CN(Cc3cc(OC)c(OC)c(OC)c3)C2=S)c1
  A: ·; B: -1.8%; C: 1%; D: -7%
> CCN(CC)CCNC(=O)c1ccccc1N
  A: 10; B: 0.1%; C: -4%; D: 11%
> CC(C)CN(C(=O)COC(=O)c1ccc2ccccc2c1)c1c(N)n(Cc2ccccc2)c(=O)[nH]c1=O
  A: ·; B: -4.5%; C: ·; D: -4%
> S=C(NCCc1ccc(Cl)cc1)NC1CCCCC1
  A: ·; B: -1.6%; C: -35%; D: -9%
> O=C(COC(=O)c1cccnc1Nc1cccc(C(F)(F)F)c1)NCCN1C(=O)CSC1=O
  A: 3; B: 3.1%; C: 0%; D: 0%
> CC(C)[C@H]1C(=O)Nc2ccccc2N1C(=O)N[C@@H](Cc1ccccc1)C(=O)N[C@H](C(=O)O)c1ccccc1
  A: ·; B: -1.6%; C: -7%; D: -2%
> COc1ccc(NS(=O)(=O)c2cccs2)cc1S(=O)(=O)N1CCCCC1
  A: ·; B: -2.9%; C: ·; D: ?
> O=C(NCc1cccnc1)c1ccc(Cl)c(S(=O)(=O)N2CCOCC2)c1
  A: ·; B: 1.2%; C: 2%; D: 16%
> Cc1cc(=O)oc2cc(OCC(=O)Nc3ccccc3C(=O)O)ccc12
  A: ·; B: -4.6%; C: 0%; D: 0%
> COc1cc(-c2nnc3n2N=C(c2ccccc2)CS3)cc(OC)c1OC
  A: -5; B: 4.6%; C: 16%; D: 14%
> CC(=O)NC(Cc1ccccc1)Cc1ccccc1
  A: ·; B: 6.1%; C: 2%; D: -11%
> CC(C)C[C@@H](CO)N1CCN(Cc2ccc(O)cc2)CCC1=O
  A: ·; B: ?; C: 0%; D: -8%
> Cc1ccccc1CSCC(=O)NCc1ccco1
  A: -6; B: 0.2%; C: -38%; D: -17%
> O=C(COc1ccccc1[N+](=O)[O-])NCC1(N2CCOCC2)CCCCC1
  A: ·; B: 1.4%; C: ·; D: -6%
> COc1ccc(C(=O)CC(=O)C(=O)Nc2cc([N+](=O)[O-])ccc2OC)cc1
  A: ·; B: 0.0%; C: -4%; D: 15%
> CN(C)C(=O)CS(=O)(=O)c1ccc(Cl)cc1
  A: 3; B: 0.3%; C: -2%; D: 10%

# Sorted by the number under Rango release inh (highest first): 5 of the compounds above
# Short forms – A = GLA inh pH 4.5; B = Rango complex inh; C = miR-21 FLuc; D = Rango release inh
> O=C(NCc1cccnc1)c1ccc(Cl)c(S(=O)(=O)N2CCOCC2)c1
  A: ·; B: 1.2%; C: 2%; D: 16%
> COc1cc(-c2nnc3n2N=C(c2ccccc2)CS3)cc(OC)c1OC
  A: -5; B: 4.6%; C: 16%; D: 14%
> CN(C)C(=O)CS(=O)(=O)c1ccc(Cl)cc1
  A: 3; B: 0.3%; C: -2%; D: 10%
> CC(=O)NC(Cc1ccccc1)Cc1ccccc1
  A: ·; B: 6.1%; C: 2%; D: -11%
> Cc1ccccc1CSCC(=O)NCc1ccco1
  A: -6; B: 0.2%; C: -38%; D: -17%

# More results:
# Short forms – A = GLA inh pH 4.5; B = Rango complex inh; C = miR-21 FLuc; D = Rango release inh
> CCN1CCCC1CNC(=O)c1[nH]c2ccc(OC)cc2c1C (centres undefined)
  A: ·; B: 0.4%; C: 4%; D: -11%
> COc1ccccc1NS(=O)(=O)c1cccc(C(=O)N/N=C(\C)c2ccc3c(c2)OCCO3)c1
  A: -5; B: -3.0%; C: -8%; D: 0%
> Cc1ccc(SCC(=O)O/N=C(\N)c2cccnc2)cc1
  A: ·; B: 2.1%; C: -22%; D: -11%
> O=C(N/N=C(\Cc1ncc[nH]1)c1ccccc1)c1ccncc1
  A: 2; B: 6.2%; C: 23%; D: 36%
> CC(C(=O)Nc1ccc(F)c(F)c1F)N1CCCCCC1 (centres undefined)
  A: 6; B: 2.3%; C: -2%; D: 0%
> CN(C)c1ccc(Sc2nnc(NC(=O)Nc3ccc(Cl)cc3Cl)s2)cc1
  A: -6; B: -5.5%; C: -1%; D: 0%
> CCCN(CC(=O)Nc1ccccc1C)C(=O)CCN1C(=O)c2cccc([N+](=O)[O-])c2C1=O
  A: ·; B: ?; C: ·; D: -4%
> Cc1sc2ncnc(N3CCC(C(=O)Nc4nc(-c5ccc(F)cc5)cs4)CC3)c2c1C
  A: ·; B: -1.4%; C: ·; D: -1%
> COc1ccc(-c2nc(CNS(=O)(=O)c3cc(OC)ccc3OC)cs2)cc1
  A: -4; B: -2.9%; C: 0%; D: -15%
> CC12c3ccccc3C(c3ccccc31)C1C(=O)N(c3cccnc3)C(=O)C12 (centres undefined)
  A: -30; B: 1.2%; C: 6%; D: -10%
> O=C(CN1C(=O)C(=O)N(C2CCCC2)C1=O)Nc1ccc(N2CCOCC2)cc1
  A: -2; B: 6.2%; C: -1%; D: -2%
> COc1ccc([N+](=O)[O-])cc1N(CC(=O)N1CCCC1)S(C)(=O)=O
  A: -1; B: -3.7%; C: 0%; D: 1%
> COc1ccc(CCC(=O)N2CCc3ccccc32)cc1
  A: 3; B: -1.9%; C: -47%; D: 10%

# Some of the compounds tested; count on the stated rates, not on these rows.
